# SARS PLP yeast: SARS-CoV PLP inhibition in yeast; S. cerevisiae expressing SARS-CoV PLpro, growth rescue; control for the full effect not named in the record; Potency, µM (top dose mostly 32.9 µM), for inactives: at the highest dose activity, positive = growth rescue; actives 0.19% (n = 330,000); active means well fitted rising curve with a large enough effect; inconclusive means small, poorly fitted or top-dose-only effect; inactive means no such curve, though single readings can be large or run the other way; also: 0% is about no effect; nearly all actives have a fitted effect of over 55% in size; growth read by luminescence after 48 h
# NS1 function inh: influenza NS1 inhibition; actives 0.4% (n = 270,000); Potency, µM (series often up to 46.1 µM), inactives show at the highest dose activity, positive = more growth; AID 2326; S. cerevisiae slowed by influenza A NS1, growth recovery by OD600; active means well fitted rising curve with a large enough effect; inconclusive means small, poorly fitted or top-dose-only effect; inactive means no such curve, though single readings can be large or run the other way; also: nearly all actives have a fitted effect of over 50% in size
#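 OD600 was taken as the measure of yeast growth restored by compound in an NS1-expressing S. cerevisiae strain. Cells had been washed out of glucose medium and diluted 1:100 into galactose -URA medium, pH 6.0.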
# StopGo reporter: lowers the luciferase signal of an FMDV 2A StopGo reporter; human cells with a luciferase reporter of 2A StopGo recoding; control for the full effect not named in the record; Potency, µM (top dose mostly 57.9 µM), for the others: at the highest dose signal change, negative = less light; actives 1.2% (n = 410,000); active = well fitted falling curve with a large enough effect; inconclusive = small, poorly fitted or top-dose-only effect; inactive = no such curve, though single readings can be large or run the other way; tested in HEK293T cells; also: % is scaled to controls: 0 for no effect and ±100 for the full control effect; nearly all actives have a fitted effect of over 45% in size; luciferase light after 4 h
# Cruzain Triton: blocks cruzain activity in presence of Triton detergent | AID 1478 | Potency, µM, inactives show max response, negative = inhibition, actives largely listed as inhibitors | actives 0.43% (n = 200,000) | purified cruzain, Z-FR-AMC fluorescence, 0.01% Triton | P25779;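 also: plate controls were neutral wells for no effect and buffer without enzyme for full effect; nearly all actives have a fitted effect of over 40% in size; top concentration of the series not given in the record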
# Target sequence (P25779 123-467 limits assumed): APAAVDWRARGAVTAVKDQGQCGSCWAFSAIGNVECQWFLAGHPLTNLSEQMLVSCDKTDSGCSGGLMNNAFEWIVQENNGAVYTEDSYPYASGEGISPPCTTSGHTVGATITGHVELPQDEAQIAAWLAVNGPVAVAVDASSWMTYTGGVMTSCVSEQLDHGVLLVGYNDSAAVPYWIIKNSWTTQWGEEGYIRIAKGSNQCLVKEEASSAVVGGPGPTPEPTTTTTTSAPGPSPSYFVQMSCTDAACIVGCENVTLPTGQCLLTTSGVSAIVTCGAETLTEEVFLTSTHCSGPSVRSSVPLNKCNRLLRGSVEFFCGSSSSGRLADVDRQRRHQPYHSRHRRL
#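 Enzyme 1.5 nM, Z-FR-AMC 2 uM, NaOAc 100 mM pH 5.5, DTT 5 mM, Triton X-100 0.01%; 15 min RT compound preincubation; kinetic ex360/em450, 60 s delta.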
# RE007 growth inh: less growth of the S. pombe RE007 Vpr strain; actives 0.21% (n = 360,000); Potency, µM (highest dose often 92.2 µM), inactives show at the top dose activity change, negative = less growth; S. pombe RE007 Vpr strain, BacTiter-Glo ATP luminescence, 24 h; control for the full effect not named in the record; AID 651644; active = well fitted falling curve with a large enough effect; inconclusive = small, poorly fitted or top-dose-only effect; inactive = no such curve, though single readings can be large or run the other way;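 also: % is scaled to controls: 0 for no effect and ±100 for the full control effect; nearly all actives have a fitted effect of over 50% in size; the assay follows cell death caused by Vpr and the record does not say whether a fall means rescue or toxicity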
#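 Fission yeast RE007 carrying one integrated HIV-1 vpr copy, seeded at OD 0.01 in PMG+AL medium with 23 nL pinned compound. Grown 24 h at 30 degrees; viability read by BacTiter-Glo luminescence after 5 min.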
# LASV entry inh: inhibitors of Lassa virus binding or cell entry; Potency, µM (doses to about 37.9 µM), inactives show top-dose activity change, negative = inhibition, hits mostly inhibitors; actives 1.2% (n = 300,000); AID 540256; Lassa virus pseudotype entry inhibition, cell reporter; control for the full effect not named in the record; active means well fitted inhibition curve with a large enough effect; inconclusive means small, poorly fitted or top-dose-only effect, or effect the other way; inactive means flat fitted curve, though single readings scatter; tested in HEK293 cells; also: % is scaled to controls: 0 for no effect and ±100 for the full control effect; nearly all actives have a fitted effect of over 50% in size; luciferase read-out
# Marburg entry inh: blocks Marburg virus binding to or entry into cells; Marburg virus pseudotyped entry inhibition, cell reporter; control for the full effect not named in the record; about a third of the inactives were read at about 46 µM; Potency, µM (titrated, usually from 37.8 µM), without a hit: at the top dose activity change, negative = inhibition, actives largely listed as inhibitors; actives 1.8% (n = 300,000); AID 540276; active = well fitted inhibition curve with a large enough effect; inconclusive = small, poorly fitted or top-dose-only effect, or effect the other way; inactive = flat fitted curve, though single readings scatter; tested in HEK293 cells; about a fifth of its hits are not listed in these tables; also: % is scaled to controls: 0 for no effect and ±100 for the full control effect; luciferase read-out
# Cruzain noTriton: blocks cruzain activity in detergent-free assay. P25779. AID 1476. purified cruzain, Z-FR-AMC fluorescence, no detergent. actives 2.3% (n = 200,000). Potency, µM, without a hit: max response, negative = inhibition, usual class: inhibitors;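 also: plate controls were enzyme without inhibitor for no effect and buffer without enzyme for full effect; nearly all actives have a fitted effect of over 40% in size; top concentration of the series not given in the record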
#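 Detergent-free condition (0.00005% Triton X-100) in acetate buffer pH 5.5 with DTT. 1.5 nM enzyme and compound were pre-mixed 15 min, then 2 uM Z-FR-AMC substrate added; reaction progress from fluorescence change between first and third reads (60 s).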
# * = called active by the depositor; u = inconclusive; x = no result given; [ ] = remark or other dose. Unless noted, calls follow the shape of the dose curve; as a rule, active = well fitted curve in the direction sought with a large enough effect; inconclusive = small, poorly fitted or top-dose-only effect, or another doubt; inactive = no such curve, though single readings can be large; an effect the other way counts as inactive or inconclusive. Potency is read from the fitted curve at half-maximal effect.
SMILES,SARS PLP yeast,NS1 function inh,StopGo reporter,Cruzain Triton,RE007 growth inh,LASV entry inh,Marburg entry inh,Cruzain noTriton
OC[C@H]1O[C@@H](n2cnc3c(Nc4ccccc4)ncnc32)[C@H](O)[C@H]1O,x,-6%,x,-6.0%,x,x,u,7%
CC(/C=N\Nc1nnc2c(n1)[nH]c1c(C)cccc12)=C\c1ccco1,-7%,0%,x,1.8%,1%,-23%,u,4µM*
O=S(=O)(Nc1ccc(-n2cccc2)cc1)c1ccc(Cl)c(Cl)c1,-6%,-43%,-3%,x,u,x,x,x
CCOC(=O)C1(Cc2ccc(Cl)cc2)CCN(C(=O)CCc2ccncc2)CC1,0%,-6%,u,x,4%,u,u,x
COc1ccc(C(O)P(=O)(OC(C)C)OC(C)C)cc1OC (configuration not stated),1%,-14%,-2%,-6.6%,-7%,x,0%,-4%
Cc1cccc(-c2nc(SCc3cc(=O)c4cccc(F)c4[nH]3)n[nH]2)c1,x,x,u,-2.9%,x,-11%[46.1 µM],x,4%
COc1ccc(Cc2nc3ccc(C(=O)NCc4cc(C)no4)cc3o2)cc1,8%,3%,7%,x,0%,0%,6%,x
Cc1cccc([C@@H]2[C@@H]3C(=O)N(Cc4ccccc4)C(=O)[C@@H]3[C@]3(C)C(=O)N(c4ccc(Br)cc4)C(=O)N23)c1,-2%,11µM*,-19%,x,-5%,x,x,x
CC(Oc1ccccc1F)C(=O)NCCN1CCCCC1 (configuration not stated),2%,-5%,-7%,-0.7%,16%,2%,3%,-7%
Cc1ccc(S(=O)(=O)CCC(=O)N(C)c2c(N)n(Cc3ccccc3)c(=O)[nH]c2=O)cc1,-1%,x,1%,x,-1%,2%,21%[46.1 µM],x
N=c1c2c3c(sc2ncn1CCCN1CCOCC1)CCCCC3,5%,-3%,-1%,-2.1%,18%,-12%,u,9%
O=C(Nc1ccc(N2CCN(C(=O)c3ccco3)CC2)cc1)C(c1ccccc1)c1ccccc1,-1%,25%,-14%,0.7%,u,8%,0%,3%
CCOC(=O)C1Cn2c(nc3c(c2=O)C(C)(C)Cc2ccccc2-3)S1 (configuration not stated),-6%,-47%,u,-2.1%,15%,-10%,-10%,u
CC(Oc1ccccc1)C(=O)N=C1SC2CS(=O)(=O)CC2N1CCc1ccccc1 (configuration not stated),-3%,-1%,-18%,x,-9%,x,x,x
Cc1cc(C)nc(NC2=NCC(=O)N2c2cc(Cl)cc(Cl)c2)n1,0%,-8%,7%,-2.4%,-12%,-3%,-5%,5%
CC(=O)NCCc1nc2ccccc2n1CCOc1ccc(C)cc1,1%,-4%,-24%,x,-2%,x,x,x
COCCCNC(=S)N/N=C/c1ccc2ccccc2c1,-1%,0%,-21%,x,1%,-18%,-3%,x
CC(=O)Nc1ccc(NC(=O)C2CCN(C(=O)NC3CCCCC3)CC2)cc1,1%,1%,9%,x,0%,-14%,-17%[46.1 µM],x
COc1ccccc1C(=O)NN(C)C1=NS(=O)(=O)c2ccccc21,-1%,2%,22%,x,4%,x,x,x
CCN(CC)CCCN(C(=O)c1ccc(Br)cc1)c1nc(-c2ccc(OC)cc2)cs1,0%,-20%,-8%,x,-5%,u,3.5µM*,x
Cc1ccc2c(c1)CC1(CN2C)C(=O)NC(=O)N(c2ccccc2C)C1=O (configuration not stated),0%,15%,-12%,-5.2%,1%,4%,-35%,-6%
COc1ccc(-n2cc(C(=O)c3ccccc3O)cn2)cc1,-1%,-7%,-51%,x,u,4µM*,u,x
CCOc1ccc(CCNC(=O)CN2C(=O)CCSc3ccccc32)cc1OCC,0%,-3%,-17%,x,0%,0%[46.1 µM],8%[46.1 µM],x
CN1CCc2c(sc3c2c(=O)n(-c2ccccc2)c2nncn32)C1,5%,u,5%,2.2%,-3%,u,-1%,-21%
COc1nc(Nc2cccc(C)c2)nc(N2CCCCC2)n1,4%,-35%,1%,-4.5%,-9%,-12%,u,-4%
CNC(=O)c1cc(Nc2nnc(C)c3ccccc23)ccc1OC,4%,-1%,18%,-4.4%,18%,13%,10%[46.1 µM],0%
Cc1nc(N2CCN(c3ccccn3)CC2)c2c(C)c(C(=O)N3CCN(c4ccccc4F)CC3)sc2n1,-3%,2%,u,x,-15%,u,7.9µM*,x
Cc1ccc(C(=O)c2sc3nc4c(cc3c2N)CCC4)cc1,-3%,-6%,31%[activator],-1.7%,2%,30%,23%,-22%
CCCNC(=O)c1ccccc1NS(=O)(=O)c1ccc2c(c1)OCCO2,13%,-3%,6%,2.5%,-11%,12%,-13%,-2%
COC(=O)c1cc(NC(=O)CN2CCc3cc4c(cc3C2)OCCCO4)cc(C(=O)OC)c1,-13%,16%,-26%,x,4%,x,x,x
CC(=O)Nc1ccc(OCc2nnc(-c3ccccc3)o2)cc1,-10%,-9%,14%,x,3%,13%[46.1 µM],-5%[46.1 µM],x
Cc1cccc(NC(=S)NCCc2ccc3c(c2)OCCO3)c1C,6%,x,32%[activator],x,-7%,-26%,-7%,x
CCN(Cc1cc2ccccc2[nH]c1=O)C(=O)c1cccnc1,2%,8%,-11%,-5.6%,-19%,5%,3%,-4%
CCN(C(=O)C1CCN(c2nc(-c3ccc(OC)cc3)no2)CC1)c1ccccc1,u,-78%,u,x,20%,x,x,x
COC(=O)c1ccc(C23CC4(C2)[C@H](CN(CC2CCCCC2)[C@@H]4c2ccccc2)C3c2ccccc2)cc1 (some centres not stated),-2%,3%,3%,-1.0%,-20%,x,x,-29%
Cc1ccsc1C(=O)Nc1ccc2c(c1)OCCO2,-19%,5%,-54%,-2.3%,-24%,u,u,2%
CCOc1ccc(OCC)c(NC(=O)CCNS(=O)(=O)c2cc(Br)cnc2N)c1,7%,4%,10%,x,0%,x,x,x
CCCC(=O)Nc1cc(-c2nn(C)c(=O)c3ccccc23)ccc1N1CCCCC1,x,-129%,7%,x,20%,-14%,u,x
CCC(C)NC(=O)C(=O)Nc1c2c(nn1-c1ccccc1)CS(=O)(=O)C2 (configuration not stated),x,x,16%,0.3%,x,-8%[46.1 µM],x,-15%
Cc1ccc(Sc2ncccc2NC(=O)c2ccccc2Cl)cc1,-2%,-2%,-9%,x,5%,-21%,0%,x
O=C(N=C1SC2CS(=O)(=O)CC2N1CCc1ccccc1)C1CCCCC1 (configuration not stated),2%,-5%,-2%,x,7%,x,x,x
O=C(/C=C/c1ccco1)N1CCCC(c2ccccc2)C1 (configuration not stated),-2%,-3%,-24%,x,2%,x,x,x
c1ccc(CC2CCN(c3nc4ccccc4n4nnnc34)CC2)cc1,0%,u,0%,-1.3%,-4%,2%,16%,25µM*
Cn1c(SCc2ccc(Br)cc2)nc2c([nH]c3ccccc32)c1=O,x,x,-8%,0.0%,x,10%[46.1 µM],x,2%
Cc1cc(C)c(C#N)c(Cl)n1,5%,0%,0%,-1.7%,8%,3%,u,-2%
O=C(Nc1ccc(F)cc1F)C1CCN(c2ncccn2)CC1,x,x,1%,-1.5%,x,3%[46.1 µM],8%[46.1 µM],-7%
COc1ccc(N(CC(=O)Nc2ccccc2C(F)(F)F)C2=NC3CS(=O)(=O)CC3S2)cc1 (configuration not stated),-1%,-15%,u,x,16%,x,x,x
N#C/C(=C\c1c(F)cccc1Cl)c1nn(-c2ccccc2)c(-n2cccc2)c1C#N,0%,8%,u,x,-2%,u,u,x
Cn1c2c(c(=O)n(C)c1=O)C(C(F)(F)F)(C(F)(F)F)N=C(CCC1CCCCC1)N2,-44%,-44%,14µM*,-5.7%,-12%,2.6µM*,11µM*,12%
CCc1cccc(OCCCn2ccnc2)c1,-19%,-20%,-27%,2.7%,-1%,15%,-1%,-7%
O=C(NCc1nc2ccccc2[nH]1)C1=C[C@@H](C2CC2)C[C@@H](OCc2ccc(CO)cc2)O1,2%,1%,-9%,x,-10%,x,x,x
Cc1ccc2c(c1)N(C(=O)Nc1ccc(Br)cc1F)CCO2,x,x,-5%,-2.4%,x,-4%[46.1 µM],x,5%
O=C(CSc1cccc[n+]1[O-])Nc1ccc([N+](=O)[O-])cc1Cl,1%,x,27%,x,-13%,u,3%,x
Cc1ccc(S(=O)(=O)NCCC(=O)N2CCC(C(N)=O)CC2)cc1C,-9%,x,0%,x,-4%,15%,6%,x
CCn1cc(S(=O)(=O)Nc2ccc3c(c2)OCCO3)cn1,-1%,5%,-19%,x,25%,2%,-13%[14.2 µM],x
NC(=O)c1ccccc1OC1CCC1,-6%,6%,1%,x,-1%,-9%,11%[46.1 µM],x
CC(=O)N(CCC1(C(C)C)CCOC(C)(C)C1)Cc1ccco1 (configuration not stated),4%,8%,-16%,0.2%,-14%,0%,-16%,u
CCCCN(CC(=O)NC(C)(C)C)C(=O)C(=O)Nc1ccc2c(c1)OCCO2,0%,0%,30%[activator],x,3%,u,7%[46.1 µM],x
COc1ccc(C(=O)NCC(=O)Nc2ccc(-c3ccccc3)cc2)cc1,-1%,0%,41%[activator],x,10%,-1%,u,x
O=S(=O)(c1ccc(Cl)nc1)N1CCCCC1,-12%,1%,0%,x,0%,-1%,1%[46.1 µM],x
# Next part:
SMILES,SARS PLP yeast,NS1 function inh,StopGo reporter,Cruzain Triton,RE007 growth inh,LASV entry inh,Marburg entry inh,Cruzain noTriton
CCOC(=O)C(=CNc1ccc(N2CCCCC2)c(S(=O)(=O)Nc2ccccc2OC)c1)C(=O)OCC,x,x,56%[activator],x,-5%,-4%,u,x
Cc1cccc(C)c1NC(=O)CCCSc1nc2ccccc2s1,1%,12%,-23%,-8.0%,-19%,u,-25%,-7%
Cc1ccc(OCCCC(=O)NC(C)c2ccccc2)cc1 (configuration not stated),-11%,-81%,-7%,-2.5%,17%,-1%,u,11%
Cc1cnn(-c2cc(Oc3ccccc3)ncn2)c1,-3%,-49%,27%,5.7%,u,u,u,1%
CCC(C)C(=O)N1CCCC(c2nc(-c3cccs3)no2)C1 (configuration not stated),0%,-3%,34%[activator],-1.4%,-2%,u,-24%,-2%
